TRPML1 blocker = qHTS for Inhibitors of the Human Mucolipin Transient Receptor Potential 1 (TRPML1). hit rate 0.02% among 390,000. Mucolipin-1 (Homo sapiens), Q9GZU1. activity change, negative = inhibition, % (concentration not given with the values). TRPML1-inducible cells, Ca2+ dye fluorescence, FDSS; hits give low values; inhibition of EC80 agonist-evoked calcium signal; in the data active means activity change below about -50%; inconclusive means about -30% to -50%; inactive means above about -30%;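 further: stimulus is agonist 54-4 at its EC80 concentration; on the % scale 0 is the no-effect control and ±100 the full control effect; compound concentration not given in the record; the text of the record puts the active cut at -80%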
Target sequence (Q9GZU1 whole entry, looked up): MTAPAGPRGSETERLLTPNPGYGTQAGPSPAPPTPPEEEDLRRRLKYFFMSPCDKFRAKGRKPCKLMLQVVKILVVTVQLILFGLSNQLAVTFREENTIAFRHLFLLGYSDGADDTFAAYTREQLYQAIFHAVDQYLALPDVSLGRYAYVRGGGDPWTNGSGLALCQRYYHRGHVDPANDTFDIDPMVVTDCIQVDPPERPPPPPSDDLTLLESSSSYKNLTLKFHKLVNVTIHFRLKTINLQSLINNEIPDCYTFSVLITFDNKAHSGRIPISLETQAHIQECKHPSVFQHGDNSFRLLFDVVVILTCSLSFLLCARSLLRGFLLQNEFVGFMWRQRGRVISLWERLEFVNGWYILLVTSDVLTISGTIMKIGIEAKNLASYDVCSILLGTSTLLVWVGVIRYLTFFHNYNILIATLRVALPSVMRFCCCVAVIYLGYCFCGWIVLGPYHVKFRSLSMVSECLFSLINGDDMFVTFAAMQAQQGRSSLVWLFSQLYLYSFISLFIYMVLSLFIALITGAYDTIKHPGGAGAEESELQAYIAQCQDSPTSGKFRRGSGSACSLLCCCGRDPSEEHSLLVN
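TRPML1-DL cells, Tet-induced overnight (~16 h, 37 °C) at 1,500 cells/well, were loaded with Ca8 no-wash dye plus quencher for 45-90 min at room temperature. Compounds were pinned during FDSS kinetic reading; agonist 54-4 at EC80 (4 uM final) then added.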
Menin MLL FP FL = qHTS Assay for Inhibitors Targeting the Menin-MLL Interaction in MLL Related Leukemias: Competition With Fluorescein Labeled MLL-derived Peptide; AID 1766, 2009; Fluorescence polarization, fluorescein-MLL peptide displacement from menin; FP activity change, % at 61.4 µM; 290,000 tested, under 10 active; inconclusive = falling polarisation curve, or a change in total fluorescence; inactive = total fluorescence flat and polarisation flat or rising; no compound was filed as active; the % refers to the polarisation; negative = inhibition;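 further: % of control where 0% means no effect; inhibitors lower the polarisation; unlabelled MLL peptide was the positive control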
ClpP mod = qHTS Assay for Activators of ClpP; ATP-dependent Clp protease proteolytic subunit (Bacillus subtilis (strain 168)), P80244; purified B. subtilis ClpP, FRET peptide cleavage, 20 min; Potency, µM (highest dose often 57.5 µM), inactives show at the top dose activity change, negative = active; hit rate 1.9% among 340,000; AID 651965, 2013; active = well fitted falling curve with a large enough effect; inconclusive = small, poorly fitted or top-dose-only effect; inactive = no such curve, though single readings can be large or run the other way; further: potency means the concentration at half of the fitted maximal effect; the source files actives as falling curves though it sought activators and does not explain the sign; nearly all actives have a fitted effect of over 65% in size; many hits overshoot -100%
Target sequence (P80244 whole entry, looked up): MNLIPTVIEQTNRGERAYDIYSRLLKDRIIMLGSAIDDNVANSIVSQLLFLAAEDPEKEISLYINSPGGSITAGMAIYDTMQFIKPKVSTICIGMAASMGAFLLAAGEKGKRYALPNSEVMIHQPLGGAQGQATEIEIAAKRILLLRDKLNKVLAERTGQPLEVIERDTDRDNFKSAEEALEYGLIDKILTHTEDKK
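Purified B. subtilis ClpP, 10 microg/mL final in Tris/HCl pH8 with KCl, BSA, glycerol and Tween-20, cleaved an Abz/nitrotyrosine-quenched decapeptide. Fluorescence (ex 320, em 430) was read at 0 and 20 min at room temperature. Delta was normalized to 5.8 microM ADEP and DMSO/no-enzyme controls.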
gsp agonist = qHTS for Agonist of gsp, the Etiologic Mutation Responsible for Fibrous Dysplasia/McCune-Albright Syndrome: qHTS; gsp mutant cells, cAMP HTRF, 30 min; control for the full effect not named in the record; Potency, µM (top dose mostly 76.9 µM), for the others: at the top dose activation (cAMP increase), actives largely listed as activators; hit rate 0.13% among 340,000; AID 624287, 2012; active = well fitted activation curve with a large enough effect; inconclusive = small, poorly fitted or top-dose-only effect, or another doubt; inactive = no such curve, though single readings can be large or run the other way; cell line not stated here;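 further: phosphodiesterase inhibitor Ro 20-1724 added with compounds to block cAMP breakdown; potency means the concentration at half of the fitted maximal effect; nearly all actives have a fitted effect of over 60% in size; about a fifth of the inactives were tested at one dose only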
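Cells in DMEM/10% FBS with G418 were pretreated with compounds in DMSO plus […] (300 uM stock) for 30 min at 37C. cAMP was measured by HTRF (cAMP-d2 plus anti-cAMP antibody-K) after 30 min at room temperature.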
gsp antagonist = qHTS for Antagonists of gsp, the Etiologic Mutation Responsible for Fibrous Dysplasia/McCune-Albright Syndrome: qHTS; gsp-mutant cells, cAMP HTRF, 30 min; control for the full effect not named in the record; Potency, µM (doses to about 76.9 µM), without a hit: top-dose activity change, negative = inhibition, hits mostly inhibitors; hit rate 0.4% among 340,000; AID 624288, 2012; active = falling curve of any shape with a large fitted effect; inconclusive = falling curve, mostly with a smaller effect; inactive = flat or rising curve; cell line not stated here;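 further: intracellular cAMP measured with PDE inhibitor Ro 20-1724 present during compound exposure; potency means the concentration at half of the fitted maximal effect; on the % scale 0 is the no-effect control and ±100 the full control effect; nearly all actives have a fitted effect of over 65% in size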
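Cells in G418 medium, seeded 16-24 h, 37C; buffer exchange to DPBS + 1 mM CaCl2, 0.5 mM MgCl2, 0.05% BSA; cpds in DMSO + […] (300 uM stock), 30 min 37C; HTRF cAMP detection.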
TRPML1 agonist = qHTS for Agonists of the Human Mucolipin Transient Receptor Potential 1 (TRPML1); Mucolipin-1 (Homo sapiens), Q9GZU1; TRPML1-expressing cells, Ca2+ dye fluorescence, FDSS; host cell line not named in the record; reference of the full effect not given here; activation, % (no concentration beside the values); hit rate 0.12% among 410,000; AID 624414, 2012; in the data active = activation above about 50%; inconclusive = about 30% to 50%; inactive = below about 30%; further: 0% is about no effect; the text of the record puts the active cut at 80%
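In this qHTS format, compounds were pin-transferred onto Ca8-dye-loaded TRPML1-DL cells induced with Tet overnight, and intracellular Ca2+ fluorescence was recorded kinetically for 110 s after a 10 s baseline. A subsequent 4uM final 54-4 (EC80) addition followed by a second 110 s read served as the antagonist phase.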
The depositor's hits bear a star; ? = inconclusive; . = not tested or not shown; & = joins results of further samples; [ ] = remark or other dose.

SMILES	TRPML1 blocker	Menin MLL FP FL	ClpP mod	gsp agonist	gsp antagonist	TRPML1 agonist
Cc1ccc(-n2c(C)cc(C(=O)CSc3nncs3)c2C)cc1	9	13	-0.8%	-10%	25µM*	2.3
COc1ccc(C(=O)Cc2ccc(OC)c(OC)c2)c(OC)c1	-10	3.1	0.7%	-24%	-16%	0.1
CCC(C)NC(=O)CSc1nnc(-c2cc(-c3ccc(C)cc3)nc3ccccc23)n1N (configuration not stated)	-7	3.7	?	0%	-11%	2.1
Cc1cccc(CN2CCN(Cc3ccc4nonc4c3)CC2CCO)n1 (configuration not stated)	42	1.4	-3.5%	1%	7%	0.6
COc1ccc(N(CC(=O)NCc2ccccc2)C(=O)CCC(=O)Nc2cc(C)ccn2)c(OC)c1	2	-1.2	.	-34%[inhibitor][15.4 µM]	-6%	-1.1
CNC(=S)NCc1ccc2[nH]c3c(c2c1)CCCC3	2	-17	-3.1%	-22%	5%	0.3
COC(=O)/C=C1\S/C(=N/N=C/c2ccco2)NC1=O	18	0.3	-0.7%	-4%	-30%	-1.1
Cc1cc(C(=O)Cn2cnc3cc(F)ccc3c2=O)c(C)n1C1CC1	-9	.	.	?	-17%	-0.4
Cc1ccc(C(C(=O)NC2CCCCC2)N(Cc2cccnc2)C(=O)c2csnn2)cc1 (configuration not stated)	-7	1.2	.	-23%[15.4 µM]	6%	0.2
CCCNC(=O)c1ccc(N2CCC3(CC2)CC(c2cccc(Br)c2)=NO3)c(N)c1	56	.	-26%	-13%	-13%	0.1
COc1ccc(Nc2ncc(C#N)c(N)n2)c(OC)c1	27	4.5	-2.1%	1%[15.4 µM]	-5%	-0.2
CN(C)C(=O)c1ccc(-c2cc(C(F)(F)F)n(C)n2)s1	10	-0.3	-1.6%	-2%[15.4 µM]	-9%	-0.4
CCN(CC)CCNC(=O)c1c(C)oc2ncn(C)c(=O)c12	46	.	-2.5%	.	.	0.0
CCn1c(CSc2nc(C)cc(C)n2)nnc1SCC(=O)Nc1cccc2ccccc12	16	3.3	-1.5%	4%	-6%	0.0
CC(C)(C)C(=O)Nc1ccc(C(=O)Nc2cccc(Oc3ccc(C(=O)O)c(C(=O)O)c3)c2)cc1	-2	4.0	-0.4%	-23%	-2%	-0.6
Oc1cccc(/C=N/N=C/c2cccc(O)c2O)c1O	12	2.3	0.3%	-1%[15.4 µM]	-13%	-0.9
COc1ccc(S(=O)(=O)N2CCCCC2)cc1NC(=O)CSc1ncccn1	-15	.	-1.5%	2%	4%	0.0
O=C1CN(C(=O)COC(=O)/C=C/c2ccc(OC(F)F)cc2)c2ccccc2N1	7	-0.4	-2.7%	14%	-18%	1.4
COc1cccc(CNC(=O)CCNS(=O)(=O)c2ccc3[nH]c(=O)oc3c2)c1	-10	.	-0.5%	-3%	5%	-0.5
CCOC(=O)C1CCN(C(=O)CN(C)S(=O)(=O)c2ccc3c(c2)c(=O)n(C)c(=O)n3C)CC1	11	-0.5	.	?	-3%	-0.7
CCN1CCN(c2cc(C)c3cc(NC(=O)/C=C/c4ccc(OCCC(C)C)cc4)ccc3n2)CC1	12	.	-11%	.	.	-0.6
CCOc1cc(CNC2CCCC2)cc(Cl)c1OCc1ccc(F)cc1	-7	1.9	?	0%	12%	2.2
Cc1cc(S(=O)(=O)NC2CCCCC2)ccc1OCC(=O)NCC1CCCO1 (configuration not stated)	-24	-11	.	-10%	-1%	1.1
CCN(C(=O)/C=C/c1ccc2c(c1)OCO2)c1ccccc1	-7	2.4	1.5%	26%	-2%	0.1
CC(/C=C1\SC(=S)N(CCC(=O)Nc2ccccc2O)C1=O)=C\c1ccccc1	-13	?	0.4%	-2%	-15%	1.4
Cc1cc(=O)[nH]c(N/N=C/c2ccc(OC(=O)c3ccco3)cc2)n1	-5	7.7	1.8%	10%	2%	-0.1
CCC(c1nnnn1C(C)(C)CC)N(CCCN1CCOCC1)Cc1cc2cccc(C)c2[nH]c1=O (configuration not stated)	-6	-1.0	?	?	-5%	0.9
S=c1[nH]nc(COc2ccc(Cl)cc2)o1	3	-1.1	-0.6%	-25%	?	-0.5
O=C(Nc1cccc(-c2csc(Nc3ccc(Cl)cc3)n2)c1)c1cccc(C(F)(F)F)c1	-16	1.2	-7.5%	-12%	-5%	0.4
O=c1oc2ccccc2c2oc3cc(O)c(O)cc3c12	26	0.7&23	.	-42%[15.4 µM]	-3%	3.7
Cc1ccc(C)c(C(=O)CCC(=O)Nc2ccc(N3CCN(C)CC3)cc2C)c1	-9	.	1.5%	-19%	15%	1.1
COc1ccc2oc(C(=O)OCC(=O)N3CCN(S(=O)(=O)c4ccc(C)cc4)CC3)c(C)c2c1	-2	.	3.7%	14%	-32%	0.6
Cc1ccc(C)c(NC(=O)c2cc(-c3ccccc3)nn2-c2ccccc2)c1	-5	6.1	?	2%	-12%	0.3
O=C(NCCCc1ccccc1)c1cncc(Br)c1	41	-0.4	1.6%	-28%	6%	-0.4
COc1ccc(NC(=O)CSc2ccccn2)cc1	1	0.3	0.5%	6%	1%	-1.0
N#CC1=C(N)Oc2cc(O)ccc2C1c1ccncc1 (configuration not stated)	-2	?	-0.5%	9%	-6%	1.0
COc1ccccc1CNC(=O)COC(=O)c1ccc(S(=O)(=O)N2CCCC2)cc1	-5	-0.6	1.1%	-13%	-6%	-0.9
O=C(c1ccccc1)N(Nc1ccccc1)c1ccccc1	13	-0.6	.	-17%	-3%	-1.0
CCN(CCCNC(=O)C1CCCN(S(=O)(=O)c2cnc[nH]2)C1)c1ccccc1 (configuration not stated)	37	3.6	-3.4%&-3.0%	27%	6%	-0.9&-0.4
CCc1ccccc1NC1=NCC(=O)N1Cc1ccc2c(c1)OCO2	-2	1.9	1.6%	2%	29%	-1.0
CCCCNc1nc(Oc2ccc(=O)[nH]n2)nc(N(C)C)n1	-3	.	-2.8%	.	.	1.6
NC(=O)c1nsc(C(=O)N(c2ccc(F)cc2)C(C(=O)NCC2CCCO2)c2ccc3ncccc3c2)c1N (configuration not stated)	0	-4.3	.	-16%	-3%	0.1
C/C(=N\NC(=O)c1nnn(-c2nonc2N)c1CN(C)c1ccccc1)c1cccc(O)c1	-25	-5.0	-0.2%	-10%	?	0.1
CCOc1cc(C(=O)NC2CC(C)(C)NC(C)(C)C2)cc(OCC)c1OCC	3	3.6	-2.9%	-1%[15.4 µM]	0%	0.5
C/C=C/c1ccc(OCCCNC2CCCC2)c(OC)c1	14	4.5	-3.2%	-39%[inhibitor]	10%	0.4

Part of the list above in order of length of the SMILES, largest number first.
SMILES	TRPML1 blocker	Menin MLL FP FL	ClpP mod	gsp agonist	gsp antagonist	TRPML1 agonist
C/C(=N\NC(=O)c1nnn(-c2nonc2N)c1CN(C)c1ccccc1)c1cccc(O)c1	-25	-5.0	-0.2%	-10%	?	0.1
COc1ccccc1CNC(=O)COC(=O)c1ccc(S(=O)(=O)N2CCCC2)cc1	-5	-0.6	1.1%	-13%	-6%	-0.9
Cc1ccc(C)c(NC(=O)c2cc(-c3ccccc3)nn2-c2ccccc2)c1	-5	6.1	?	2%	-12%	0.3
N#CC1=C(N)Oc2cc(O)ccc2C1c1ccncc1 (configuration not stated)	-2	?	-0.5%	9%	-6%	1.0

Next structures.
SMILES	TRPML1 blocker	Menin MLL FP FL	ClpP mod	gsp agonist	gsp antagonist	TRPML1 agonist
CC(C)CC(=O)Nc1ccc(Oc2ccc(NC(=O)CC(C)C)cc2)cc1	0	-2.0	-0.1%	-31%[inhibitor]	3%	-0.5
COc1ccc(Nc2nc3c(S(=O)(=O)c4ccccc4)nnn3c3ccsc23)cc1OC	38	.	-1.7%	.	.	0.8
CCCCCC/C=C/c1ccc(C2C3C=CCC(C)C3C(=O)N2Cc2ccccc2)c(F)c1 (configuration not stated)	20	-1.7	.	.	.	0.7
CC1CC(=O)Nc2ccccc2N1C(=O)Nc1ccc(F)cc1F (configuration not stated)	-13	2.0	-0.7%	21%	2%	-0.4
C=CCNc1nc(Cl)nc(Nc2ccc(OC)cc2OC)n1	4	-4.3	.	-4%	-7%	0.8
CCOc1ccc(NC(=S)NC(=O)c2cncc(Br)c2)cc1	0	.	.	13%[15.4 µM]	2%	0.0
COc1ccccc1CC1(C)NC(=O)N(CC(=O)N2CC(C)OC(C)C2)C1=O (configuration not stated)	6	0.5	-1.0%	9%	23%	0.8
Cc1ccc(OCC(=O)OC2CCS(=O)(=O)C2)cc1 (configuration not stated)	-3	2.4	-4.3%	-3%	8%	-0.3
CCN(CC)CCCn1c2c(c(SCC(=O)Nc3nccs3)nc1=O)CCC2	-2	.	.	-6%[15.4 µM]	5%	-0.4
CC(C)Sc1nnc2n(CCc3ccccc3)c(=O)c3c4c(sc3n12)COC(C)(C)C4	43	.	-0.3%	-1%	-3%	-1.7
Brc1cccc(-c2cnn3c(-c4ccccc4)cc(-c4ccccc4)nc23)c1	-8	.	0.2%	.	.	0.7

Retrieved by structure from above:
SMILES	TRPML1 blocker	Menin MLL FP FL	ClpP mod	gsp agonist	gsp antagonist	TRPML1 agonist
Brc1cccc(-c2cnn3c(-c4ccccc4)cc(-c4ccccc4)nc23)c1	-8	.	0.2%	.	.	0.7
COc1ccccc1CC1(C)NC(=O)N(CC(=O)N2CC(C)OC(C)C2)C1=O (configuration not stated)	6	0.5	-1.0%	9%	23%	0.8
Cc1ccc(OCC(=O)OC2CCS(=O)(=O)C2)cc1 (configuration not stated)	-3	2.4	-4.3%	-3%	8%	-0.3
CCN(CC)CCCn1c2c(c(SCC(=O)Nc3nccs3)nc1=O)CCC2	-2	.	.	-6%[15.4 µM]	5%	-0.4
CCOc1ccc(NC(=S)NC(=O)c2cncc(Br)c2)cc1	0	.	.	13%[15.4 µM]	2%	0.0
COc1ccc(Nc2nc3c(S(=O)(=O)c4ccccc4)nnn3c3ccsc23)cc1OC	38	.	-1.7%	.	.	0.8
CC1CC(=O)Nc2ccccc2N1C(=O)Nc1ccc(F)cc1F (configuration not stated)	-13	2.0	-0.7%	21%	2%	-0.4

Screens from PubChem BioAssay.
